# FGF22 binding: FGF22 (human) thermal shift binding; recombinant FGF22 thermal shift, SYPRO orange fluorescence; percent of sucrose octasulfate shift, DMSO zero; 340,000 compounds, 1.5% hits; calls only at 9.99 µM; Q9HCT0; AID 651658;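 active means melting point raised past a set limit in the mean and every replicate; three in four hits are not shown here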
# Target sequence (Q9HCT0 whole entry, looked up): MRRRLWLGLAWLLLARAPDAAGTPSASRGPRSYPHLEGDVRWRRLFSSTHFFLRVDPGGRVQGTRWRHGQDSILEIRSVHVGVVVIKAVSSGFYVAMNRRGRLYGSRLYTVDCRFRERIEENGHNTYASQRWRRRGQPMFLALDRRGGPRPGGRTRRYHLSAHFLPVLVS
# Beta cell apopt: beta cell apoptosis inhibition; 300,000 compounds, 0.8% hits; INS-1E cytokine-induced death, ATP luminescence, 48 h; percent of positive-control rescue, neutral wells zero; protection from apoptosis, % (concentration not given with the values);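 active means all replicates at 75% or more, or half of them and the mean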;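 further: 0% = cytokine-treated negative control wells and 100% = positive control rescue; higher means more ATP so stronger rescue from cytokine killing; wells of about 40 µL received 100 nL stock; the first replicate is given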
# Ecoli rRNA inh: inhibitors of bacterial rRNA selective over humanized ribosomes; AID 720706; 350,000 compounds, 1.6% hits; E. coli WT GFP vs humanized-ribosome RFP mutants, fluorescence, 24 h; stronger effect = lower value; DMSO median 0, no signal -100; GFP signal change (wild-type ribosome), % (no concentration beside the values);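 active means significant combined selectivity score with lowered wild-type GFP, culture density cut under 30%, mutant RFP and density less affected; inactive means any of these conditions unmet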; further: one replicate is shown; some compounds called inactive have numbers as strong as hits
# Bfl-1 A1 inh: inhibitors of the anti-apoptotic protein A1, read as caspase activation | MEF A1-2A-BIM cells, Caspase-Glo 3/7 luminescence, 3 h; percent of clofoctol response, vehicle zero | AID 2462 | 330,000 compounds, 0.066% hits | caspase activation, % (no concentration beside the values);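 active means over half of replicate activation scores above 10%, or exactly half above 10 with the replicate mean above 10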;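 further: wells of about 30 µL received 50 nL stock; many hits fall short of the cut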
# AF4-AF9 inh: MLL-AF4/AF9 protein interaction inhibition; P42568; AlphaScreen, biotin-AF4 peptide binding to FLAG-AF9; inhibition, % at 10 µM; 350,000 compounds, 0.47% hits; AID 651704;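 active means every replicate reaching a set inhibition limit, whatever the replicate mean, cut at about 25% in these data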;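 further: 0% = plate neutral control median and 100% = total signal loss; the record names both 10 and 1 µM as test concentration; the first replicate is given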
# Target sequence (P42568 whole entry, looked up): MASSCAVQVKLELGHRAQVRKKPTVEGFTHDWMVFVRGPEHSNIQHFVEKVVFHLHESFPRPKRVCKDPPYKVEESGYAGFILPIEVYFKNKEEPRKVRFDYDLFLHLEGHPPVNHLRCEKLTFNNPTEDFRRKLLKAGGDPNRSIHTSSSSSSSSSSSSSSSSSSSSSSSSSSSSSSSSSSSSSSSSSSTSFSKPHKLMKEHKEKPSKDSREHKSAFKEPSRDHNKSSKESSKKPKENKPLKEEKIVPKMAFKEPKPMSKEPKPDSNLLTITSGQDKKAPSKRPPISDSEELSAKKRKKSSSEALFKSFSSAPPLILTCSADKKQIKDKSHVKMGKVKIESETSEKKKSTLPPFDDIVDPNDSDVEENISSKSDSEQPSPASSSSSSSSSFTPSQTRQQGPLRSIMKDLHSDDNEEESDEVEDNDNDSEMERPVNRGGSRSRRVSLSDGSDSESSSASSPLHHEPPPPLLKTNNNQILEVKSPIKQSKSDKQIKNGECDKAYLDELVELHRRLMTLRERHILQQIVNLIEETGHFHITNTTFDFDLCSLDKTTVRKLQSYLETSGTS
# UCH37 DUB inh: human UCH37 deubiquitinating enzyme inhibition; 330,000 compounds, 0.33% hits; purified proteasome/UCH37, Ub-AMC cleavage fluorescence; inhibition, % (concentration not given with the values); Q9Y5K5;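 active means mean of two replicates above 20%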;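 further: 0% = compound-free wells with enzyme and 100% = wells lacking proteasome; stock transfer was 100 nL into about 20 µL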
# Target sequence (Q9Y5K5 whole entry, looked up): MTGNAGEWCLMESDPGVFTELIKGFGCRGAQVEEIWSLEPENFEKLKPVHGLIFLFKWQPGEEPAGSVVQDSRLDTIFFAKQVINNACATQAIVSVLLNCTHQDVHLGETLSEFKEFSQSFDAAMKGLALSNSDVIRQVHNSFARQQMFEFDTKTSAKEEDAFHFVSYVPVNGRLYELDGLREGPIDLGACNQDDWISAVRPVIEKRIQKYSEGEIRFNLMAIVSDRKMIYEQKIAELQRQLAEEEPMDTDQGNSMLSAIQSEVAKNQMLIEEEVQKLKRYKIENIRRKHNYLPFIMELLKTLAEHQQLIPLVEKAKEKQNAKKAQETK
#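 Material: Human UCH37 enzyme supplied as purified proteasome complex | Schedule: 30 min preincubation with enzyme, 25 min cleavage at room temperature | Detection: AMC fluorescence 355/460 nm | Measure: % inhibition of Ub-AMC cleavage fluorescence | Controls: Wells without proteasome as full block, compound-free enzyme plus substrate as uninhibited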
# E coli growth: E. coli growth inhibition | OD600 absorbance (test concentration not listed) | 330,000 compounds, 0.21% hits | Escherichia coli growth, OD600, 23 h; stronger effect = lower value | AID 1053175;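 active means OD600 absorbance below the run mean of sample wells minus 3.6 SD, in any replicate, cut at about 0.56 in these data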;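 further: stock transfer was 300 nL into about 60 µL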
# T cruzi repl: blocks replication of Trypanosoma cruzi; T. cruzi beta-gal in NIH3T3, luminescence, 90 h; inhibition, % (no concentration beside the values); 300,000 compounds, 1.4% hits;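 active means mean inhibition across valid replicates above about 55%, limit read from the data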;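 further: signal also drops with host cell toxicity which is not excluded here; 0% = plate median of DMSO wells and 100% = zero luminescence signal; higher percent means less beta-gal luminescence so fewer parasites; stock transfer was 50 nL into about 50 µL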
# Ecoli rRNA inh OD600: recorded beside Ecoli rRNA inh, whose call it bears; OD600 change, %; measured here: OD600 growth;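 optical density of the mix in the first replicate; 0 = DMSO median and -100 = no signal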
# Ecoli rRNA inh RFP: recorded beside Ecoli rRNA inh, whose call it bears; RFP signal change, %; measured here: RFP humanized mutant strains;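 first replicate; 0 = DMSO median and -100 = no signal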
# Starred values were filed as active, the others as inactive; i = inactive; . = not tested or not shown; + = active, no number.
SMILES,FGF22 binding,Beta cell apopt,Ecoli rRNA inh,Ecoli rRNA inh OD600,Ecoli rRNA inh RFP,Bfl-1 A1 inh,AF4-AF9 inh,UCH37 DUB inh,E coli growth,T cruzi repl
CCC(=O)N1CCc2cc(S(=O)(=O)CCC(=O)NC3CCCCC3)ccc21,i,-2.9,-0.4,8.7,-2.2,-0.2,0.4,7.0,0.722,-3.9
CCCCC(CC)C(=O)Nc1ccc(S(=O)(=O)Nc2nccs2)cc1 (centres undefined),i,1.6,-11.1,-13.1,-5.7,1.3,-25.9,-0.8,0.693,-8.5
CC(C)=CCCC(C)CN1CCC(O)CC1 (centres undefined),.,6.4,.,.,.,-0.8,.,5.3,0.725,-20.1
COc1ccc(OCCOC(=O)CN2C(=O)NC3(CCCC3)C2=O)cc1,i,-3.3,1.7,-2.7,-2.0,-0.5,-0.5,1.0,0.634,-9.1
COc1ccc(OC)c(CC(NC(C)=O)C(=O)NC2CCN(c3nc(OC)nc(OC)n3)CC2)c1 (centres undefined),i,0.0,16.9,9.3,1.4,-0.1,-1.8,2.2,0.694,-3.6
Cc1cc(C)c(S(=O)(=O)NCCSCc2ccco2)c(C)c1,i,-13.8,10.4,7.2,4.2,0.0,-1.6,1.9,0.691,.
C=CCNC(=O)C1CC(=O)N(c2ccc(OCC(=O)Nc3ccc(Cl)c(C(F)(F)F)c3)cc2)C1 (centres undefined),.,.,.,.,.,0.2,.,-0.5,0.723,-3.7
CC1(C)Cc2cccc(OCC(=O)N3CCN(c4ccccc4F)CC3)c2O1,i,2.0,-16.4,-24.0,0.7,0.3,-0.7,0.2,0.656,12.6
CCN1C(=O)[C@H]2[C@@H](c3ccc(-c4ccc(F)cc4)c(OC)c3)N[C@@](C)(C(=O)OC)[C@H]2C1=O,i,.,-11.2,0.1,-8.2,-1.2,.,0.9,.,-0.2
CC(=O)Oc1ccc(-c2ccc(C(=O)OCC(=O)N(C)CC(=O)Nc3ccccc3Cl)cc2)cc1,i,26.2,4.2,-3.4,2.8,-0.6,0.3,-0.4,0.719,-9.0
COc1ccc(N(CC(=O)Nc2ccc(S(=O)(=O)N3CCCC3)cc2)S(C)(=O)=O)cc1OC,.,-2.3,.,.,.,0.7,.,-0.6,0.655,-6.5
CC1=C(C(=O)OCc2ccc3c(c2)OCO3)C(c2ccccc2OCc2ccccc2)NC(=O)N1 (centres undefined),.,-1.3,.,.,.,0.8,.,0.2,0.723,42.5
Nc1nc(N)c2cc(Sc3ccc4ccccc4c3)ccc2n1,i,108.7*,-42.9,-71.2,-10.3,-0.2,-0.2,-8.3,0.0785*,58.5*
Cc1ccc(CN2C(=O)CNC2=S)cc1,i,-3.1,-4.1,-2.8,2.7,0.2,13.4,0.3,0.72,-9.0
COC(=O)COc1cccc(NC(=O)c2cc(OC)cc(OC)c2)c1,i,-1.6,12.0,14.0,-9.3,-5.5,-0.4,4.1,0.707,-15.4
O=C(Nc1cccn(Cc2c(Cl)cccc2Cl)c1=O)c1ccc(Cl)cc1Cl,.,5.4,.,.,.,-0.1,.,-7.7,0.741,25.6
O=C(Nc1cccc(-c2csc(Nc3cccc(C(F)(F)F)c3)n2)c1)c1cc([N+](=O)[O-])cc(C(F)(F)F)c1,i,31.0,10.3,-5.4,-1.9,0.1,0.4,-1.1,0.723,42.5
CCCCCCn1c(SCCOC)nc2c1c(=O)[nH]c(=O)n2C,i,-11.9,5.5,8.9,-2.5,-1.3,-1.6,2.1,0.736,15.7
CC(C)(C)c1cc(NC(=O)Nc2ccccc2)no1,i,.,5.0,2.3,0.1,-4.5,3.9,3.1,0.629,-5.6
CC[C@]12c3[nH]c4ccccc4c3CCN1C(=O)C(CC(=O)NC/C=C(\C)CCC=C(C)C)C[C@@H]2C(=O)N1CCN(C(=O)C2CC2)CC1 (some centres undefined),i,-2.2,-3.2,1.4,3.5,-0.6,1.4,1.0,0.707,.
CCOC(=O)c1sc(NC(=O)CN2C(=O)c3cccc4cccc(c34)C2=O)nc1C,.,-4.6,.,.,.,0.1,.,-1.6,0.703,2.4
Cn1cc(Cl)c(-c2n[nH]c(=S)n2C2CCCCC2)n1,i,-0.3,-1.4,-5.5,-0.3,0.3,-4.2,2.8,0.681,0.8
Cc1cc(C)cc(NC(=O)c2cccc(NC3=NC4CS(=O)(=O)CC4S3)c2)c1 (centres undefined),i,-2.6,1.1,5.3,-1.6,.,4.0,2.1,0.762,-5.3
O=C1CNCc2[nH]c3ccccc3c2N1c1ccccc1,.,0.9,.,.,.,-0.9,.,-0.4,0.672,-7.0
O=C(Cc1ccccc1)N1O[C@H]2C=C[C@@H]1CC2,i,.,-0.7,2.3,-6.0,.,1.1,2.0,0.717,.
Cc1ccccc1OCCSc1nc(N(C)C)nc(N(C)C)n1,i,0.8,3.7,-3.0,-4.4,0.1,-12.4,1.6,0.703,16.0
O=C(CSc1nnc(-c2ccco2)n1-c1ccccc1)NCc1ccc2c(c1)OCO2,.,-0.3,.,.,.,0.0,.,4.0,0.707,4.3
CCOC(=O)C1CCCN(C(=O)CCc2ccccc2)C1 (centres undefined),.,-6.6,.,.,.,1.3,.,1.6,0.657,-3.9
CCOC(=O)C1CCN(C(=O)C2CCCN2S(=O)(=O)c2ccc(Cl)cc2)CC1 (centres undefined),i,-4.2,3.8,4.7,0.9,0.8,0.8,2.4,0.694,-14.5
O=C(COc1ccc(Cl)cc1Cl)NNC(=S)NC(=O)c1ccco1,.,0.3,14.8,-16.9,5.8,0.4,-3.5,3.7,0.65,-14.2
COc1ccc(NC(=O)COc2ccc(N(C)S(=O)(=O)c3ccc(Cl)cc3)cc2)cc1,i,12.2,.,.,.,0.3,1.3,7.0,0.689,.
O=C(Cc1ccc(-c2ccccc2)cc1)NCc1cccnc1,i,2.2,-8.6,-11.9,-4.5,-0.3,-1.4,4.0,0.703,-9.2
CCc1ccc(C(=O)NNC(=O)c2cccc(N3C(=O)CCC3=O)c2)cc1,+,.,2.2,10.9,-2.4,1.0,-1.1,3.6,0.652,-1.9
O=C(NC(=S)Nc1cccc(NC(=O)c2ccccc2Cl)c1)c1cccs1,i,-1.9,2.9,-3.1,3.6,0.1,5.0,4.3,.,-3.5
COc1ccc(CCNC(=O)C2CCN(S(=O)(=O)c3ccc4nc5c(c(C(=O)O)c4c3)CCCC5)CC2)cc1OC,i,0.6,13.3,7.4,3.1,-0.1,0.7,-1.8,0.662,-6.3
CCc1cc2c(-n3nc(C)cc3C)ncnc2s1,.,-1.3,.,.,.,0.7,.,2.8,0.679,29.3
COc1ccc(CCN2CCCn3c2nc2c3c(=O)n(Cc3ccccc3F)c(=O)n2C)cc1OC,.,7.0,.,.,.,-0.3,.,2.4,0.712,6.6
COC(=O)[C@H](Cc1ccc(O)cc1)NC(=O)Cn1cnc(C(=O)Nc2ccc(C)c(C)c2)n1,i,.,-0.7,-2.2,-2.8,.,-3.5,0.2,0.712,.
O=C(O)CSCc1c(F)cccc1Cl,.,0.7,.,.,.,0.1,.,1.1,0.692,-7.3
CC(C)C(=O)Nc1ccc(C(=O)NNC(=O)C(c2ccccc2)c2ccccc2)cc1,.,-9.9,.,.,.,0.1,.,5.3,0.74,-6.4

# Structures listed so far that bear a hit mark in FGF22 binding:
mol | FGF22 binding | Ecoli rRNA inh | Ecoli rRNA inh OD600 | Ecoli rRNA inh RFP | AF4-AF9 inh | UCH37 DUB inh
CCc1ccc(C(=O)NNC(=O)c2cccc(N3C(=O)CCC3=O)c2)cc1 | + | 2.2 | 10.9 | -2.4 | -1.1 | 3.6

# (more compounds)
SMILES,FGF22 binding,Beta cell apopt,Ecoli rRNA inh,Ecoli rRNA inh OD600,Ecoli rRNA inh RFP,Bfl-1 A1 inh,AF4-AF9 inh,UCH37 DUB inh,E coli growth,T cruzi repl
Cc1ccc(NC(=O)C2CCCN(c3ncccn3)C2)c(C)c1 (centres undefined),i,3.8,2.7,11.6,-4.2,0.1,-1.9,-2.6,0.691,2.6
Cc1cccnc1NC(=O)CSc1nnc(COc2ccc(C(C)C)cc2)n1C,i,-11.7,8.8,4.6,-2.5,-0.5,3.3,6.0,0.742,-16.0
CS(=O)(=O)N(CC(=O)N1CCCC1)c1cccc(F)c1,i,-0.7,-19.6,-22.1,3.3,1.1,-4.8,4.7,0.668,0.1
Cc1cc(C(=O)C(=O)NC(C)C)c(C)n1-c1ccc([N+](=O)[O-])cc1,.,3.3,.,.,.,0.0,.,1.4,0.69,-14.1
COc1cccc(-c2ccc(SCC(=O)N3CCN(c4ccccc4)CC3)nn2)c1,.,2.0,6.7,-2.4,32.2,0.2,4.1,5.8,0.717,11.8
CC1CCC2(CC1)NC(=O)N(CC(=O)N1CCN(S(=O)(=O)c3ccc4c(c3)CCC4)CC1)C2=O (centres undefined),i,-4.3,5.3,5.1,-2.1,-0.3,1.5,0.7,0.695,.
C=CCNC(=S)Nc1ccc(Br)cc1F,i,-3.9,0.8,1.2,-2.5,-1.1,-5.7,.,.,-11.9
CCC(NC(=O)CCCc1ccccc1)c1ccccc1 (centres undefined),i,5.4,-10.2,-4.9,0.1,-0.3,-6.6,2.6,0.681,-3.3
S=c1[nH]nc(-c2ccco2)n1/N=C/C(Cl)=C/c1ccccc1,.,2.5,-36.4*,-22.8*,-2.1*,-1.4,-1.1,.,.,-68.9
CCOC(=O)[C@@H]1[C@H]2COc3ccccc3[C@H]2N2C(=O)N(c3ccc(F)cc3)C(=O)[C@]12C,i,-2.8,-0.4,-13.5,-11.6,0.5,0.6,0.8,.,10.6
COc1cc(NC(=O)c2cccc3c2C(=O)N(Cc2cccnc2)C3)cc(OC)c1OC,i,-6.1,-5.5,-7.3,-0.4,-0.2,2.6,5.3,0.714,-2.3
Cc1ccc(/C(N)=N/OC(=O)c2cccs2)cc1,.,-1.4,.,.,.,-5.0,.,-0.5,0.684,6.1
CS(=O)(=O)N1CCN(c2ccc(NC(=O)c3cc4ccccc4o3)cc2)CC1,i,1.2,13.5,15.8,1.1,2.3,-1.4,-1.9,0.735,6.8
COc1ccc(C(O)c2nccn2Cc2ccccc2)cc1 (centres undefined),.,-15.5,.,.,.,0.3,.,0.2,0.634,-6.6

# Arranged by heavy-atom count (high to low): part of the list above
SMILES,FGF22 binding,Beta cell apopt,Ecoli rRNA inh,Ecoli rRNA inh OD600,Ecoli rRNA inh RFP,Bfl-1 A1 inh,AF4-AF9 inh,UCH37 DUB inh,E coli growth,T cruzi repl
CS(=O)(=O)N1CCN(c2ccc(NC(=O)c3cc4ccccc4o3)cc2)CC1,i,1.2,13.5,15.8,1.1,2.3,-1.4,-1.9,0.735,6.8
Cc1cc(C(=O)C(=O)NC(C)C)c(C)n1-c1ccc([N+](=O)[O-])cc1,.,3.3,.,.,.,0.0,.,1.4,0.69,-14.1
Cc1ccc(NC(=O)C2CCCN(c3ncccn3)C2)c(C)c1 (centres undefined),i,3.8,2.7,11.6,-4.2,0.1,-1.9,-2.6,0.691,2.6
COc1ccc(C(O)c2nccn2Cc2ccccc2)cc1 (centres undefined),.,-15.5,.,.,.,0.3,.,0.2,0.634,-6.6

# High-throughput results from PubChem.

# Some of the compounds tested, so the mix of outcomes need not match the whole.
